Screens deposited in PubChem BioAssay by National Center for Advancing Translational Sciences (NCATS).
KAT2A inh – blocks human GCN5L2 histone acetyltransferase. Potency, µM (series often up to 58.9 µM), for inactives: at the top dose activity change, negative = inhibition, most hits filed as inhibitors. hit rate 0.21% among 390,000. GCN5L2 HAT assay, ThioGlo1 CoA-SH fluorescence. Q92830; active means well fitted inhibition curve with a large enough effect; inconclusive means small, poorly fitted or top-dose-only effect, or another doubt; inactive means no such curve, though single readings can be large or run the other way
Target sequence (Q92830 whole entry, looked up): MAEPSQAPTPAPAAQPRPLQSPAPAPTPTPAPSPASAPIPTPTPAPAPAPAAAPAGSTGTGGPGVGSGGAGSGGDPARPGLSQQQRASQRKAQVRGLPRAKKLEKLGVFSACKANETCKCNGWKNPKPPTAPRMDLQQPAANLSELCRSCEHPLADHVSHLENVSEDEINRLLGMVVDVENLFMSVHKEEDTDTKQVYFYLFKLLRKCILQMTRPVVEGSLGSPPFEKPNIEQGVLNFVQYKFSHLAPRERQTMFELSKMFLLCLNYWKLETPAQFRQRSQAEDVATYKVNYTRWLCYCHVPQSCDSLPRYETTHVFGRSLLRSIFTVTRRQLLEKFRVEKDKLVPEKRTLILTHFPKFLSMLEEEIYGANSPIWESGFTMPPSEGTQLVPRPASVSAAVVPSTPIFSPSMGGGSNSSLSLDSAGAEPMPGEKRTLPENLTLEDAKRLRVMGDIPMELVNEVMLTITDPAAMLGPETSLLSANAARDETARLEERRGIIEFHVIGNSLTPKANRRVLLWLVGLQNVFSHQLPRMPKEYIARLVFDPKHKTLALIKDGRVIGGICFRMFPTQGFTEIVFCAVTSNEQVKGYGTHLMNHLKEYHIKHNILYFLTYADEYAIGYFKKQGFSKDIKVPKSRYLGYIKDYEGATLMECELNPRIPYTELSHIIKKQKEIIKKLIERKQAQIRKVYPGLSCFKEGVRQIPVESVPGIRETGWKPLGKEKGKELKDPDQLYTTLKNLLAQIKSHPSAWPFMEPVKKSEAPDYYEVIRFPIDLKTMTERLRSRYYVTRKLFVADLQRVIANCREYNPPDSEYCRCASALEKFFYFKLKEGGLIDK
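Free CoA generated was detected with ThioGlo1 (50uM) fluorescence at Ex340nm/Em540nm, read immediately and after 20 min at room temperature. Enzyme, 20 nM in HEPES pH 7.5 buffer, saw compounds 15 min before adding 75uM H3(1-25) peptide and 70uM acetyl-CoA.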
* hit, by the source's call; u = inconclusive; & = joins results of further samples; [ ] = dose if it differs, or a comment. On the % scale 0 is the no-effect control and ±100 the full control effect; potency means the concentration at half of the fitted maximal effect. An excerpt, and most or all hits are left out here.

SMILES	KAT2A inh
c1ccc(-c2ccc(CN3CCN(c4ncccn4)CC3)cc2)cc1	-1%
COc1ccc(NC(=O)CN(C)C(=O)Cc2ccc(S(=O)(=O)N3CCOCC3)s2)cc1	-28%
COc1ccc(CN2CCN(C(=O)c3cc(C4CC4)nn3-c3ccccc3)CC2)cc1F	-8%
O=C(N=C1SC2CS(=O)(=O)CC2N1c1cccc(Cl)c1Cl)C1CCCO1 (configuration not stated)	-18%
O=c1[nH]c(=O)c2nc(Br)n(C3OC(CO)C(O)C3O)c2[nH]1 (configuration not stated)	3%
Cn1nccc1C(=O)OCC(=O)Nc1nc(-c2ccccc2)cs1	-5%
CCN(CC)C(=O)CN1C(=O)NC2(CCc3ccccc3C2)C1=O (configuration not stated)	-3%
COc1ccc(CSCCNC(=S)Nc2ccccc2)cc1Cl	-9%
CCN(CC)CCN(C(=O)CN1C(=O)c2ccccc2C1=O)c1nc2cc3c(cc2s1)OCO3	-7%
CCOc1ccc(CCNC(=O)COC(=O)c2cc([N+](=O)[O-])ccc2N2CCOCC2)cc1OCC	-5%
O=C(NNC(=S)NCC1CCCO1)c1cc(Br)ccc1Cl (configuration not stated)	-3%
CN(C)c1cc[n+](CC(=O)c2ccc(-c3ccccc3)cc2)cc1	-9%
CN1CCN(c2c(F)cc3c(=O)c(C(=O)O)cn4c3c2OCN4C)CC1	u
Cc1ccccc1C(=O)Nc1ccc(OCc2cc(=O)n3cccc(C)c3n2)cc1	-3%
CCc1cc(C(=O)OC)c(NC(=O)c2ccoc2C)s1	-9%
Cc1csc(NC(=O)CSc2nnc(-c3ccoc3C)n2CCc2ccccc2)n1	2%
Cc1ccccc1C(=O)c1cccn1CC(=O)NC(C)c1ccccc1 (configuration not stated)	15%
COc1ccc(Cl)cc1N(CC(=O)N1CCN(Cc2ccccc2)CC1)S(C)(=O)=O	1%
COC(=O)c1ccccc1NC(=O)CN(c1cc(OC)ccc1OC)S(C)(=O)=O	-16%
Cc1cccc(CSCc2nnc(N)s2)c1	3%
CC(OC(=O)CCN=C1NS(=O)(=O)c2ccccc21)C(=O)Nc1ccc(S(N)(=O)=O)cc1 (configuration not stated)	2%
COc1cccc(NC(=O)c2cnn(-c3ccccc3)c2-n2cccc2)c1	-2%
CNCCCC12CCC(c3ccccc31)c1ccccc12	-4%&3%&-2%&-14%&-10%&-5%
CN(C)c1ccc(C2N(C(=O)N3CCOCC3)CCN2S(=O)(=O)c2ccccc2)cc1 (configuration not stated)	1%
COC(=O)c1c(NC(=O)c2ccc(C)cc2)sc(Cc2ccccc2)c1C	1%
COc1ccc(C(=O)Nc2cc(-c3cccc(C)c3)nn2-c2ccccc2)cc1	-13%
Fc1cccc(Cl)c1CSc1ncn[nH]1	-6%
Cc1ccc(NC(=O)Cn2c(=O)oc3cc(S(=O)(=O)N4CCC(C)CC4)ccc32)cc1Cl	-27%
Cc1cccn2c(=O)c3cc(C(=O)NCCc4ccccc4)c(=N)n(CC4CCCO4)c3nc12 (configuration not stated)	-5%
CC(C)Cn1c(N)c(C(=O)CSc2n[nH]c(N)n2)c(=O)n(C)c1=O	2%
Cc1cc(C)nc(NC(=O)c2cccc([N+](=O)[O-])c2C)n1	7%
Nc1nc(-c2ccco2)nn1C(=O)c1cccnc1	1%
COCCN1CCN(C(=O)c2cc(COc3cncc(Cl)c3)on2)CC1	-1%
Cc1ccccc1NC(=O)Cc1nnc(SCC(=O)c2ccc(Br)cc2)n1C	u
O=C(CSc1nc(-c2ccco2)cc(C(F)(F)F)n1)N1CCCc2ccccc21	1%
CCOc1cc(NC(=S)NCC2CCCO2)c(OCC)cc1NC(=O)c1cccc(F)c1 (configuration not stated)	-8%
CCOc1ccc(-n2c(=O)c3c(C)c(C(=O)N(C)C)sc3n(CC(=O)Nc3ccccc3F)c2=O)cc1	0%
Cc1cccc(NC(=S)N2CCOCC2)c1C	7%
O=C(COC(=O)C1=COCCO1)Nc1ccc(Cl)cn1	-2%
O=C(CN1C(=O)NC2(CCOc3ccccc32)C1=O)Nc1ccc(Br)cc1F (configuration not stated)	-5%
COc1ccccc1N(C)S(=O)(=O)c1ccc(C(=O)Nc2ccc(N3CCOCC3)cc2)cc1	-17%
CCOC(=O)C(=O)Nc1cc(C)nn1-c1nc2ccccc2[nH]1	1%
CC(CNC(=O)COc1ccccc1)OC(=O)Nc1ccc(Cl)c(Cl)c1 (configuration not stated)	2%
O=C(c1ccccc1F)N1CCN(Cc2ccccc2F)CC1	2%
O=C(CSc1nc(=O)n(Cc2ccccn2)c2c1CCC2)Nc1ccc(F)cc1F	1%
Cc1ccc(C(=O)N/C(=C/c2ccc(-c3cccc([N+](=O)[O-])c3)o2)C(=O)NCCCN(C)C)cc1	-6%
CCOc1ccc(-c2c(C(=O)N/N=C(\C)c3ccco3)nnn2-c2nonc2N)cc1	-5%
O=C(CCNC(=O)c1ccco1)NCc1ccc(F)cc1	-3%
Nc1ccc(-n2ccnc2)cc1	1%
O=C(O)C1CC=CCC1C(=O)NCCc1ccccc1 (configuration not stated)	-2%
C[N+](C)(CCCCCC[N+](C)(C)CCCN1C(=O)c2cccc3cccc(c23)C1=O)CCCN1C(=O)c2cccc3cccc(c23)C1=O	u
COc1ccc(C(=O)NNC(=O)C23CC4CC(CC(C4)C2)C3)cc1OC	-2%
Cn1c(N)c(N2CCN(c3ccccc3)CC2)c(=O)[nH]c1=O	-4%
COC(=O)C1=C(C(=O)OC)[C@@H]2N(C)c3ccccc3[C@@]23C[C@@H](C(=O)OC)N=C3N1	2%
CCCCOc1ccc(S(=O)(=O)NNC(=O)C2Cc3c(ccc4ccccc34)O2)cc1 (configuration not stated)	-2%
CCn1ncc(CN2CCC(Oc3ccc(C(=O)N4CCCC4)cc3)CC2)c1C	-2%
CCc1nnc(NC(=O)CCC(=O)Nc2ccc(OC)cc2OC)s1	0%
COc1ccc(CNC(=O)C(c2ccc(C)cc2)N(Cc2cccs2)C(=O)c2ccc3c(c2)OCCO3)cc1 (configuration not stated)	u
Cc1ccc(C2=NNC(C(O)C(O)C(O)C(O)CO)S2)cc1 (configuration not stated)	-1%
O=C(NC1CCCCC1)c1ccc2c(c1)N(Cc1cccc(F)c1)C(=O)c1ccccc1S2	-16%

Random excerpt: 4 compounds from above, in no set order.
SMILES	KAT2A inh
O=C(NC1CCCCC1)c1ccc2c(c1)N(Cc1cccc(F)c1)C(=O)c1ccccc1S2	-16%
Cn1c(N)c(N2CCN(c3ccccc3)CC2)c(=O)[nH]c1=O	-4%
COC(=O)C1=C(C(=O)OC)[C@@H]2N(C)c3ccccc3[C@@]23C[C@@H](C(=O)OC)N=C3N1	2%
O=C(O)C1CC=CCC1C(=O)NCCc1ccccc1 (configuration not stated)	-2%

Following part
SMILES	KAT2A inh
O=C(Cn1cnc2nc3c(cc2c1=O)CCCC3)N1CCN(c2ccccc2)CC1	0%
Cc1cc(C)c2oc(C(=O)Nc3c(C(=O)Nc4ccccc4)oc4ccccc34)cc(=O)c2c1	-5%
CCO[C@@H]1OC(C(=O)N2CCN(Cc3ccc4c(c3)OCO4)CC2)=C[C@H](c2ccc3c(c2)OCO3)[C@H]1CCCO	-4%
Cc1ccc(Cl)cc1N1CCN(C(=O)c2cc(S(=O)(=O)N3CCCC3)c[nH]2)CC1	-12%
Cc1c(C(=O)Nc2ccc(OCc3ccccc3)cc2)cccc1[N+](=O)[O-]	-6%
COc1ccc(Cl)cc1N(C(C)C(=O)O)S(C)(=O)=O (configuration not stated)	-7%
Cc1nc2scc(-c3ccc(C(C)(C)C)cc3)c2c(=O)n1N	-14%
Cc1nc(N(C)C)ncc1C(=O)O	-4%
CCCC(C(=O)OCC)P(=O)(c1ccccc1)c1ccccc1 (configuration not stated)	-8%[0.501 µM]
O=C(O)CCC(=O)Nc1ccc(Cc2ccc(NC(=O)CCC(=O)O)cc2)cc1	2%
CCn1c(SCC(=O)Nc2cc(C)on2)nc2c(c1=O)SCC2	0%
Cc1ccc(NC(=O)CCC(=O)N2Cc3ccccc3Oc3ncccc32)cc1	-15%
COc1ccccc1NC(=O)c1ccc(C)s1	0%
COc1cc(-c2[nH]ncc2CN(C)Cc2cc(C)[nH]n2)cc(OC)c1OC	13%
Cc1ccc(CNCC(O)(c2ccccc2)c2ccc(Cl)cc2)cc1 (configuration not stated)	-11%
CCC(C)c1ccc(C(C)NC(=S)NC2CCCCC2)cc1 (configuration not stated)	u
COc1ccccc1CNC(=O)C(NS(=O)(=O)c1ccc2c(c1)OCCO2)C(C)C (configuration not stated)	0%
CC(C)(C)NC(=O)CSc1n[nH]c(=O)n1-c1ccccc1	-13%
COc1cc(C2C3C(=O)N(Cc4ccccc4)C(=O)C3ON2c2ccccc2)cc(OC)c1OC (configuration not stated)	-5%
CCc1ccccc1NS(=O)(=O)c1ccc2c(c1)CC(=O)N2	-5%
Cc1cc(C)c(NC(=O)C(C)c2cccc(C(=O)c3ccccc3)c2)c(C)c1 (configuration not stated)	-16%
O=C(CSc1ccc(-c2ccco2)nn1)N1CCCC1	-6%
CCCCn1c(N)c(N(CC)C(=O)c2c(CC)noc2C)c(=O)[nH]c1=O	1%
O=C(O)c1cc2c([nH]c1=O)CCCC2	2%
COc1ccccc1C(=O)NC1CCCc2ccccc21 (configuration not stated)	1%
COc1ccc(N2C(=O)CSC23C(=O)N(CC(=O)NC2CCCCC2)c2ccccc23)cc1 (configuration not stated)	23%
CCCCSc1c(C)c2cc3c(cc2[nH]c1=O)OCO3	-2%
O=C(/C=C/c1ccc2c(c1)OCO2)NCCSCc1ccc(Cl)cc1	-22%
COC(=O)c1cc2occc2n1Cc1nc(-c2ccccc2F)oc1C	-6%&2%
CN(C)c1ccc(C(=O)c2ccccc2)cc1	-10%
COc1ccc(NC(=S)N2CCN(Cc3ccccc3)CC2)c(OC)c1	-7%
CC(=O)Nc1cccc(C(=O)Nc2cccnc2)c1	-7%
CC1CC(C)CN(CC(O)COCCOc2ccc(Br)cc2)C1 (configuration not stated)	0%
CC(=O)NC1=NC(=O)/C(=C/N2CCCCC2)S1	-6%
CCOC(=O)CSc1nc2ccc(C)cc2n2cnnc12	-9%
COc1ccccc1Nc1ncc2c(n1)CCN(Cc1cc(F)cc(F)c1)C2	-5%
CC(C)(C)NC(=O)COC(=O)CCC(=O)c1cccs1	1%
COCCNC(=O)C(c1ccc(F)cc1)N(CCOC)C(=O)CCC(=O)Nc1ccccn1 (configuration not stated)	1%
CCN(CC)S(=O)(=O)c1ccc2c(c1)N(CC(=O)Nc1ccc(OC)cc1)C(=O)CS2	-6%
C/C(=N\NC(=O)c1ccco1)c1ccc(NC(=O)c2ccccc2)cc1	-27%

In the list so far, these contain a tert-butyl group.
SMILES	KAT2A inh
Cc1nc2scc(-c3ccc(C(C)(C)C)cc3)c2c(=O)n1N	-14%
CC(C)(C)NC(=O)CSc1n[nH]c(=O)n1-c1ccccc1	-13%
CC(C)(C)NC(=O)COC(=O)CCC(=O)c1cccs1	1%

The main list resumes; the 3 compounds before the break are reprinted first.
SMILES	KAT2A inh
COCCNC(=O)C(c1ccc(F)cc1)N(CCOC)C(=O)CCC(=O)Nc1ccccn1 (configuration not stated)	1%
CCN(CC)S(=O)(=O)c1ccc2c(c1)N(CC(=O)Nc1ccc(OC)cc1)C(=O)CS2	-6%
C/C(=N\NC(=O)c1ccco1)c1ccc(NC(=O)c2ccccc2)cc1	-27%
COc1ccc(OC)c(-c2csc(N(CC3CCCO3)C(=O)Cc3ccccc3)n2)c1 (configuration not stated)	1%
CCOc1cc(C(=O)NCC(=O)N2CCC3(CC2)NCCc2[nH]cnc23)cc(OCC)c1OCC	-2%
CC(C)c1nc(SCC(=O)N2CC(=O)Nc3ccccc32)c2ccccc2n1	-1%
CC(NC(=O)C1=Cc2ccccc2OC1)c1ccccc1 (configuration not stated)	-7%
CC(C)NC(=O)N(Cc1ccccc1)Cc1cccs1	1%
CC(C)(CNC(=O)c1ccc(S(=O)(=O)N2CCCC2)cc1)N1CCOCC1	-7%
COc1ccc(C(=O)N(CN2CCCC2=O)c2ccccc2OC)cc1OC	4%
Cc1cc(COc2ccccc2O)on1	-8%[0.501 µM]
Cc1c(C=O)c(C=O)c(C)n1Cc1ccccc1	-5%
Cc1ccc(S(=O)(=O)NCC2CCC(C(=O)NCc3ccc(F)cc3)CC2)cc1 (configuration not stated)	2%
COc1ccc(-c2cc(C(F)(F)F)nc(SCC(=O)NCC(C)C)n2)cc1OC	-1%
Cc1ccc(-c2noc(-c3ccccc3NC(=O)c3ccccc3)n2)cc1	-3%
CCOC(=O)C1CCC(CNCc2ccccc2C)CC1 (configuration not stated)	-1%
CN(Cc1c(F)cccc1Cl)C(=O)c1ccc(NS(=O)(=O)c2ccc3[nH]c(=O)[nH]c3c2)cc1	-4%
CCN(CC)C1CCN(C(=O)CCn2nnnc2CN2CCOCC2)C1 (configuration not stated)	-4%
COc1ccc(/C=N\NC(=O)c2ccc(-c3ccccc3)cc2)c(OC)c1OC	2%
Cc1ccc(CNc2ccc(-c3nc(C(C)C)no3)cc2[N+](=O)[O-])cc1	0%
CC(On1c(-c2ccccc2)nc2ccc(Cl)cc21)C(=O)O (configuration not stated)	-10%
Cc1nc2ccccc2c2oc(C(=O)NCc3ccc4c(c3)OCO4)cc12	-1%
COc1ccccc1N1CC(C(=O)Nc2nnc(SC)s2)CC1=O (configuration not stated)	-19%
